B2AR ag = agonists of human beta-2 adrenergic receptor inducing internalization | Am2.2-beta2AR cells, FAP receptor internalization, flow cytometry; reference of the scale not given here | response, % (no concentration beside the values) | hit rate 0.43% among 340,000;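 active = response above a set limit, near 3 SD of response in nonfluorescent compounds, cut at about 42% in these data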;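 note: stock transfer was 100 nL into about 11 µL; a reference agonist was the positive control; negative values mostly stem from fluorescent compounds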
Target sequence (P07550 whole entry, looked up): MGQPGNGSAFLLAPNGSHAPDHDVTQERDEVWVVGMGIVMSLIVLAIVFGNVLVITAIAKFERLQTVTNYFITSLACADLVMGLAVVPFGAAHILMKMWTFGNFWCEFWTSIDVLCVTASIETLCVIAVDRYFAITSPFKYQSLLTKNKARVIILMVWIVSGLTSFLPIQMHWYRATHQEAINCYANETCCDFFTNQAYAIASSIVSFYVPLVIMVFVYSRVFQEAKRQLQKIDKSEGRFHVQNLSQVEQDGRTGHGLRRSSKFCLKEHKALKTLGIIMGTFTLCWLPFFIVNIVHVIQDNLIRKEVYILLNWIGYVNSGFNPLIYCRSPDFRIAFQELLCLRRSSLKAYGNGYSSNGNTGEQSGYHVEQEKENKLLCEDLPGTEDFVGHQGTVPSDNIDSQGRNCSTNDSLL
LANA-H2A inh = blocks KSHV LANA binding to histone H2A/H2B | inhibition, % (test concentration not listed) | cell-free LANA-H2A/H2B peptide, fluorescence polarization | Q9QR71 | hit rate 0.6% among 320,000 | AID 2629; in the data active = inhibition mostly above about 10%, no sharp cut-off; inactive = mostly below about 6.7%;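 note: stock transfer was 7.5 nL into about 10 µL; 0% = median of vehicle wells and 100% = median of positive control wells; one replicate is shown; the record names a cut of 25% in any replicate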
E coli growth = inhibitors of Escherichia coli growth; OD600, 23 h; active compounds read low; OD600 absorbance (concentration not given with the values); hit rate 0.21% among 330,000; AID 1053175;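 active = OD600 absorbance below the run mean of sample wells minus 3.6 SD, in any replicate, cut at about 0.56 in these data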;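 note: stock transfer was 300 nL into about 60 µL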
FGF22 binding = FGF22 (human) thermal shift binding | Q9HCT0 | recombinant FGF22 thermal shift, SYPRO orange fluorescence; percent of sucrose octasulfate shift, DMSO zero | calls only at 9.99 µM | hit rate 1.5% among 340,000;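 active = melting point raised past a set limit in the mean and every replicate; inconclusive = no clear call; three in four hits are not shown here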
ALR H2O2 inh = human ALR oxidase inhibition via reduced H2O2 | P55789 | purified ALR, DTT oxidation, H2O2 HRP-luminol luminescence | inhibition, % (concentration not given with the values) | hit rate 3.8% among 290,000;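 active = mean and each replicate at 75% or more; inconclusive = only one of the two met; inactive = neither met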;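 note: stock transfer was 7.5 nL into about 7.5 µL; 0% = neutral wells and 100% = wells with inactivated enzyme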
Target sequence (P55789 whole entry, looked up): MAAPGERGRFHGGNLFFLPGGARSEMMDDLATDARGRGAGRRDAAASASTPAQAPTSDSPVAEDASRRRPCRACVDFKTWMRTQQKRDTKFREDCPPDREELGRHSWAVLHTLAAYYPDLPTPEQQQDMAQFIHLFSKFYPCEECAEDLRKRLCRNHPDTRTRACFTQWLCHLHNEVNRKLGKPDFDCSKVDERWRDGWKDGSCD
UCH37 inh = blocks the human deubiquitinase UCH37. inhibition, % (concentration not given with the values). hit rate 0.33% among 330,000. Q9Y5K5. AID 588478. purified proteasome/UCH37, Ub-AMC cleavage fluorescence;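 active = mean of two replicates above 20%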;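 note: 0% = compound-free wells with enzyme and 100% = wells lacking proteasome; stock transfer was 100 nL into about 20 µL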
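Material: Human UCH37 enzyme supplied as purified proteasome complex | Schedule: 30 min preincubation with enzyme, 25 min cleavage at room temperature | Detection: AMC fluorescence 355/460 nm | Measure: % inhibition of Ub-AMC cleavage fluorescence | Controls: Wells without proteasome as full block, compound-free enzyme plus substrate as uninhibited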
HNF4A DNA FP = change in binding of human HNF4 alpha to DNA; AID 1224865; P41235; hit rate 0.3% among 360,000; activity change, % at 10 µM; HNF4a-FITC DNA binding, fluorescence polarization, 1 h; in the data active = activity change above about 30%, passing the limit was not always enough;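 note: controls were the assay level and a saturating level of protein; the project sought stronger binding though the title names inhibitors; some compounds called inactive have numbers as strong as hits; positive values seem to mean higher polarization but the record does not say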
Target sequence (P41235 whole entry, looked up): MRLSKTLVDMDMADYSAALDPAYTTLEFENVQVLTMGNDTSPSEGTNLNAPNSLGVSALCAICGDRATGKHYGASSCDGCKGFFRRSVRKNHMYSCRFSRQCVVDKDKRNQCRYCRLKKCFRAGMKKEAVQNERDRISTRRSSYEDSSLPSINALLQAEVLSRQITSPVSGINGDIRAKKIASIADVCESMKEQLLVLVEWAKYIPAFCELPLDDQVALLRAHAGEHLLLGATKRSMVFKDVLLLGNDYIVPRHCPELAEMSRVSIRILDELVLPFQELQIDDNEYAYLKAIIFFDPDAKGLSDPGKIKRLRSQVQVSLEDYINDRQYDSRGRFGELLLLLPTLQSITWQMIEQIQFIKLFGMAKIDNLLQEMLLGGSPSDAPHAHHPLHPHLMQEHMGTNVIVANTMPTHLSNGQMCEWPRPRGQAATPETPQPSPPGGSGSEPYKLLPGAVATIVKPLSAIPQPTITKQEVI
Active calls of the source: *; i = inactive; ? = inconclusive; nt = not tested or not shown. An excerpt; the hit share may differ from the screen's.

SMILES	B2AR ag	LANA-H2A inh	E coli growth	FGF22 binding	ALR H2O2 inh	UCH37 inh	HNF4A DNA FP
CCOc1ccc(C(=O)Nc2ccccc2N2CCOCC2)cc1	3	-1.1	0.78	nt	0	-3.2	-1.8
COc1cccc(NS(=O)(=O)c2ccc3[nH]cc(C(=O)NCCCOC(C)C)c(=O)c3c2)c1	5	-2.5	0.78	nt	-1	3.8	0.8
COc1ccc(NC(=S)NC(=O)c2cncc(Br)c2)c(OC)c1	1	-4.5	0.72	i	-1	2.2	-1.3
CCCOc1ccc(NC(=O)CC2C(=O)N(CC)C(=S)N2Cc2cccs2)cc1 (centres undefined)	-5	-0.1	0.66	nt	-5	5.7	2.2
O=C(NCc1ccco1)C12CN(Cc3ccccc3)CC1C(c1cccc([N+](=O)[O-])c1)=NO2 (centres undefined)	-6	1.7	nt	i	15	3.2	-0.4
COC(=O)/C(C#N)=C/c1c[nH]c2ccccc12	4	2.3	nt	i	-7	nt	-3.3
CC(C)n1nnnc1SCC(=O)NNC(=O)C1CCCCC1	-5	1.2	0.67	i	-3	1.2	1.3
O=C(NCc1ccccc1OC(F)(F)F)C1CCC(=O)N(CCc2ccccn2)C1 (centres undefined)	0	5.7	0.67	i	-6	-0.3	-1.1
CCOc1cccc(NC(=O)/C(C#N)=C\c2cccnc2)c1	20	-3.4	0.66	i	nt	0.7	0.2
CCc1ccc(N2CSC3=C(C#N)C(c4cccs4)CC(=O)N3C2)cc1 (centres undefined)	0	-2.8	0.74	nt	5	8.9	-13
CC(=O)c1ccc(C(=O)NC2CCCN(Cc3ccccc3F)C2)cc1 (centres undefined)	-4	3.7	0.68	i	nt	3.8	-1.2
CC(C)[C@H]1COCCS(=O)(=O)N1Cc1ccccc1F	-3	0.8	nt	i	nt	0.7	-1.9
Cc1nc2ccc(S(=O)(=O)NC(C(=O)NCc3ccco3)C(C)C)cc2s1 (centres undefined)	-1	-3.9	0.71	i	23	4.9	-1.5
COc1ccc(C(=O)C2CCCN(Cc3cccn3-c3ccc(Cl)cn3)C2)c(OC)c1 (centres undefined)	17	-1.7	0.67	i	-5	4.6	0.8
O=Cc1ccc(-c2ccccc2OC(F)(F)F)o1	-2	-2.7	0.73	nt	-16	3.6	-3.0
COc1ccc(CCCNC(=O)C2CCC(=O)N(CCc3cccc(F)c3)C2)cc1 (centres undefined)	-17	1.0	0.72	i	-4	6.3	-0.8
COc1ccc(S(=O)(=O)NCc2ccncc2)cc1NC(=O)c1ccccc1F	-5	nt	0.69	i	2	-0.9	1.8
CC/C(=N\NC(=O)c1cc(C2CC2)[nH]n1)c1ccccc1	8	-2.6	nt	i	27	nt	-2.5
COc1cccc(/C=C/C2=CC(C)(C)NC(=S)N2)c1	1	-5.8	0.64	i	6	0.0	1.7
CO/N=C(/CNC(=O)c1ccccc1Cl)c1ccc(Cl)cc1	0	-3.7	nt	nt	-3	nt	-6.5
Cn1cnc([N+](=O)[O-])c1S(=O)(=O)c1ccc(Cl)cc1	15	nt	0.7	i	nt	49*	-0.2
CCc1ccc(OCC(=O)Nc2nnc(C3CCCC3)s2)cc1	2	-0.5	0.69	i	-6	-1.5	-0.9
CCc1nnc(NC(=O)CSc2nnc3scc(-c4ccc(C)cc4)n23)s1	0	1.6	0.74	nt	0	0.7	-0.9
Cc1cc2n(n1)SC(Nc1cc(Cl)ccc1Cl)N2 (centres undefined)	-3	-14	0.66	nt	1	3.9	4.4
COc1ccc(/C(N)=N/OC(=O)Cc2ccc(C)cc2)cc1OC	2	-2.3	0.68	nt	1	1.1	0.1
CCN(Cc1ccccc1)Cc1nnnn1Cc1ccccc1	-4	1.4	0.72	nt	6	5.2	-0.3
Cc1occc1C(=O)n1nnc2ccccc21	nt	-0.7	0.67	nt	8	4.7	nt
COc1ccc(OC)c(Nc2nc(-c3sc(NC(=O)CC(C)C)nc3C)cs2)c1	16	-4.4	0.74	i	-37	-1.1	1.9
C=CCOc1cccc(C2/C(=C(\O)c3ccc4c(c3)OCCO4)C(=O)C(=O)N2Cc2cccnc2)c1 (centres undefined)	-1	0.1	0.64	i	3	12	-1.1
CC(C(=O)NC1CCCc2ccccc21)N1CCN(Cc2ccc3c(c2)OCO3)CC1 (centres undefined)	-3	1.0	0.73	nt	-7	3.7	3.3
Cc1ccnc(N2CCC(C(=O)NCc3ccc(F)cc3)CC2)n1	-4	2.9	0.66	i	-5	-6.5	1.3
Cc1ccc(NC(=O)C(C)c2ccc(-c3ccccc3)c(F)c2)cc1 (centres undefined)	0	-1.4	0.72	nt	-2	-0.5	-2.0
CN(C)S(=O)(=O)Oc1ccsc1C(=O)Nc1cccc(Cl)c1	3	0.6	0.68	nt	0	5.5	-2.8
CCC(C)c1ccc(NC(=O)c2c([N+](=O)[O-])cnn2CC)cc1 (centres undefined)	1	-5.2	0.65	i	6	5.3	1.9
COC(=O)c1ccc(C2C(C(C)=O)=C(O)C(=O)N2CCO)cc1 (centres undefined)	7	4.1	0.71	nt	0	-1.5	-7.7
Cc1noc(C)c1C(=O)OCC(=O)NCCC1=CCCCC1	0	-1.3	0.69	nt	-1	5.4	-0.2
COc1ccc2cc(C(=O)N3CCN(Cc4ccc5c(c4)OCO5)CC3)[nH]c2c1	4	0.8	0.65	i	-7	2.3	-5.9
Cn1c(N)c(C(=O)COc2ccc(Cl)cc2Cl)c(=O)n(C)c1=O	-12	-0.7	0.67	i	-1	-3.0	-3.3
CCn1cc(Br)c(C(=O)NCc2ccco2)n1	-5	-3.4	0.64	nt	14	2.7	1.8
NS(=O)(=O)c1ccc(Nc2nc(-c3ccccc3)cs2)cc1	6	-1.5	0.67	nt	nt	6.2	-1.6

Reprinted at random: two compounds from above
SMILES	B2AR ag	LANA-H2A inh	E coli growth	FGF22 binding	ALR H2O2 inh	UCH37 inh	HNF4A DNA FP
NS(=O)(=O)c1ccc(Nc2nc(-c3ccccc3)cs2)cc1	6	-1.5	0.67	nt	nt	6.2	-1.6
CCC(C)c1ccc(NC(=O)c2c([N+](=O)[O-])cnn2CC)cc1 (centres undefined)	1	-5.2	0.65	i	6	5.3	1.9

The results go on.
SMILES	B2AR ag	LANA-H2A inh	E coli growth	FGF22 binding	ALR H2O2 inh	UCH37 inh	HNF4A DNA FP
CCOC(=O)N1CCN(C(=O)COCc2cc(-c3ccc4c(c3)OCO4)on2)CC1	-1	3.8	0.67	i	-5	-0.6	-2.6
O=C(CSc1n[nH]c(=O)n1C1CC1)NCc1ccccc1Cl	-6	-1.1	0.69	i	1	4.2	5.0
CCCN1CCC(N2CCCC(C(=O)O)C2)CC1 (centres undefined)	0	-1.4	0.68	i	0	4.1	-0.3
Cn1c(N)c(S(=O)(=O)N2CCN(c3cccc(Cl)c3)CC2)c(=O)n(C)c1=O	9	3.2	0.71	i	-2	2.3	2.8
O=C(CSc1ccc(-c2ccc(-n3cccn3)cc2)nn1)Nc1ccccc1F	-7	-2.8	0.65	i	-10	-0.4	1.2
COc1ccc(OCC(=O)Nc2ccc(S(=O)(=O)N3CCOCC3)cc2)cc1	0	28*	0.72	nt	-1	1.4	2.4
O=C(/C=C/c1ccccc1)n1cnnc1SC/C=C/c1ccccc1	10	1.0	0.68	i	6	3.0	0.9
O=C(c1ccccc1)n1ccc2ccccc21	-3	-1.0	0.79	nt	-1	-0.3	0.5
Oc1ccccc1-c1cc(C(F)(F)F)nc(-c2ccccc2)n1	5	1.9	0.69	i	-7	-5.4	-1.4
Cc1ccc(C(=O)N/C(=C\c2ccco2)C(=O)N2CC(C)OC(C)C2)cc1C (centres undefined)	4	1.6	0.73	i	50	5.6	-0.3
CC(C)(CC(=O)O)CC(=O)Nc1ccccc1Oc1ccccc1	-3	5.1	0.69	i	3	2.4	-2.8
Cc1ccccc1-c1cccc([C@@H]2C[C@H]3[C@H](CON3C)CN2C(=O)CCc2ccccc2)c1	-6	nt	nt	i	nt	nt	-12
Cc1cc(=O)n2nc(N3CCCC(C(=O)NCCc4ccccc4)C3)sc2n1 (centres undefined)	-1	0.5	0.71	nt	0	0.8	-0.1
COC(/C(=N/O)c1ccc(Cl)cc1)c1ccccc1 (centres undefined)	13	-7.9	nt	i	-1	nt	1.4
CSCCC1NC(=O)N(CC(=O)Nc2ccc(Br)cc2Br)C1=O (centres undefined)	-11	0.5	0.69	i	nt	0.2	-0.5
Cn1c(=O)c2cc(S(=O)(=O)N3CCN(c4cccc(C(F)(F)F)c4)CC3)ccc2n(C)c1=O	16	-8.5	0.72	nt	7	4.0	1.1
CC(=O)c1cnc2nc(SCc3cccc(C)c3)nn2c1C	31	5.2	0.7	i	0	3.2	2.8
OCCN1CCN(C(=S)Nc2ccc(Oc3ccccc3)cc2)CC1	-29	1.4	0.72	nt	50	3.9	-0.7
CCCCCCCCNC(=S)NCCN1CCCCC1	31	nt	0.57	i	nt	2.2	0.6
COc1cc(OC)cc(-c2c(-c3cccs3)c3cc(-c4cc(OC)c(OC)c(OC)c4)ccc3n2C)c1	9	5.5	0.76	i	2	-34	0.5

Just B2AR ag, LANA-H2A inh and HNF4A DNA FP (6 entries from above):
compound,B2AR ag,LANA-H2A inh,HNF4A DNA FP
CCc1nnc(NC(=O)CSc2nnc3scc(-c4ccc(C)cc4)n23)s1,0,1.6,-0.9
Cc1cc2n(n1)SC(Nc1cc(Cl)ccc1Cl)N2 (centres undefined),-3,-14,4.4
COc1ccc(/C(N)=N/OC(=O)Cc2ccc(C)cc2)cc1OC,2,-2.3,0.1
CCN(Cc1ccccc1)Cc1nnnn1Cc1ccccc1,-4,1.4,-0.3
Cc1occc1C(=O)n1nnc2ccccc21,nt,-0.7,nt
COc1ccc(OC)c(Nc2nc(-c3sc(NC(=O)CC(C)C)nc3C)cs2)c1,16,-4.4,1.9

(further entries)
SMILES	B2AR ag	LANA-H2A inh	E coli growth	FGF22 binding	ALR H2O2 inh	UCH37 inh	HNF4A DNA FP
Cc1ccc(C(=O)N/C(=C/c2ccco2)C(=O)Nc2cccc(C(=O)O)c2)cc1	nt	-6.8	0.72	i	?	11	nt
O=C(NC(N1CCOCC1)C(Cl)(Cl)Cl)c1cc([N+](=O)[O-])cc([N+](=O)[O-])c1 (centres undefined)	-7	-4.8	0.65	i	-23	-0.1	2.7
COc1ccc(S(=O)(=O)N(C)CC(=O)N2CCOCC2)cc1Cl	-8	0.1	0.71	nt	-10	0.5	0.3
COC(=O)Cc1ccc2c3ccccc3n(C)c2c1	-5	-4.7	0.68	nt	-2	-5.3	0.8
CN1CCN(C(=O)CNC(=O)Cc2ccc(Cl)cc2)CC1	2	4.4	0.69	i	-10	1.0	-0.3
O=C(CN1C(=O)NC2(CCc3ccccc32)C1=O)c1ccc(Br)s1 (centres undefined)	-4	3.7	0.64	i	3	4.4	7.0
CCOC(=O)c1[nH]ncc1[C@@H]1C[C@H]2CN(Cc3cccc(Cl)c3)C(=O)[C@]23CCCN13	2	6.3	0.7	i	-1	4.6	-0.4
O=C(CNCCC1=CCCCC1)Nc1ccccc1N1CCCCC1	-6	0.8	0.65	nt	-16	8.8	-0.7
Cc1ccc(C)c(N2CCN(C(=O)C3CCN(c4nc(C)cc(C)n4)CC3)CC2)c1	11	-0.6	0.71	nt	0	3.4	-0.3
Nc1ccc2oc3ccccc3c2c1	0	nt	0.67	i	nt	-6.8	-0.9
CCOC(=O)c1c(CN(CC)CC)n(C)c2cc(Br)c(O)cc12	-1	0.1	0.7	i	nt	4.7	-1.0
CCCn1c(SCC(=O)Nc2cccc(S(=O)(=O)N3CCCC3)c2)n[nH]c1=O	-6	-3.6	0.66	i	nt	4.0	-1.6
Cc1ccc(NC(=O)OCCNC(=O)OC(C)C)cc1	2	3.8	0.68	i	-7	0.1	4.1
O=C(NCc1nnnn1-c1ccc(F)c(F)c1)c1ccc2c(c1)OCO2	0	4.8	0.63	i	-3	1.1	-3.6
O=C(NCc1ccco1)/C(=C/c1ccco1)NC(=O)c1ccc(Br)o1	-1	-0.8	0.72	i	-1	2.5	-2.7
O=C(CNc1cccc2ccccc12)N/N=C/c1ccc([N+](=O)[O-])o1	13	-1.3	nt	i	-4	nt	4.0

Screens deposited in PubChem by several laboratories.
